Vaccinia inh = blocks a specific stage of Vaccinia orthopoxvirus infection. Vaccinia-infected cells, mCherry/Venus stage reporter fluorescence; stronger effect = lower value; some inactives read as strong as hits. activity change (mCherry), % (concentration not given with the values). 89,000 compounds, 0.01% hits;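 active = mCherry past -33% and 40 or more points under the early reporter, replicates agreeing; inconclusive = past -33% without that gap or agreement; tested in A549 cells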;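 also: scaled between vehicle wells and reference inhibitor wells; 23 nL library stock went into each well; one replicate is shown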
Vaccinia inh Venus = second read-out of Vaccinia inh, no call of its own (marks repeat the call); activity change (Venus), %; measured here: Venus reporter, other viral stage;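 negative = less Venus signal; first of two replicates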
Active calls of the source: *; ? = inconclusive; · = no result given.

Value order – Vaccinia inh Venus | Vaccinia inh
- COC(=O)[C@@H]1[C@@H](CO)[C@@H]2Cn3c(ccc(-c4ccccc4)c3=O)[C@@H]2N1S(C)(=O)=O
    0.0 | 4.3
- CC=Cc1ccc2n(c1=O)C[C@H]1[C@H](CO)[C@@H](C(=O)NCC)N(Cc3cocn3)[C@@H]21 (mixture of isomers)
    8.0 | 18.2
- O=C(C[C@H]1CC[C@H]2[C@@H](COC[C@@H](O)CN2S(=O)(=O)c2cccc(F)c2)O1)NCc1ccc2c(c1)OCO2
    -7.3 | -7.2
- CC(C)C(=O)Nc1ccc2c(c1)C(=O)N(C)[C@@H]1CC[C@H](CC(=O)NCCCN(C)C)O[C@H]1CO2
    -3.6 | -2.3
- O=C(Cc1ccccc1)N1C[C@@H]2[C@H](c3ccccc31)[C@H](CO)N2C(=O)C1CCCCC1
    5.5 | -1.2
- C[C@@H]1CCCCO[C@@H](CN(C)Cc2ccc3c(c2)OCO3)[C@H](C)CN([C@H](C)CO)C(=O)c2cc(NS(=O)(=O)c3ccc(F)cc3)ccc2O1
    · | ?
- C[C@@H]1CN([C@H](C)CO)C(=O)Cc2cc(NC(=O)CCN3CCOCC3)ccc2O[C@H]1CN(C)Cc1ccc(Cl)c(Cl)c1
    -12.5 | -13.4
- C[C@@H]1CN([C@@H](C)CO)C(=O)c2cc(-c3ccc(C#N)cc3)cnc2O[C@@H]1CN(C)C(=O)Nc1ccc(F)cc1
    1.1 | -4.4
- O=C(Cc1ccccn1)N1CC(=O)N2[C@H](C1)[C@@H](c1ccc(C#CC3CC3)cc1)[C@@H]2CO
    -0.8 | 6.7
- C[C@H](CO)N1C[C@H](C)[C@H](CN(C)CC2CC2)Oc2c(NC(=O)c3nc4ccccc4s3)cccc2C1=O
    -8.6 | -12.4
- C[C@H](O)C#Cc1cnc2c(c1)C(=O)N([C@@H](C)CO)C[C@@H](C)[C@@H](CN(C)C(=O)CN1CCOCC1)O2
    4.4 | 1.6
- N#C[C@H]1N[C@H](CO)[C@H]1c1ccccc1
    4.6 | 10.0
- C[C@H]1CN([C@@H](C)CO)C(=O)Cc2cc(NC(=O)C3CC3)ccc2O[C@@H]1CN(C)S(=O)(=O)c1cccs1
    13.6 | 10.9
- Cn1cnc(CCNC(=O)C[C@H]2CC[C@@H]3[C@H](COC[C@@H](O)CN3C(=O)Nc3ccc(Cl)cc3)O2)c1
    0.0 | -0.3
- CCC(=O)N1C[C@H](C)[C@@H](OC)CN(C)C(=O)c2cc(NC(=O)NC(C)C)ccc2OC[C@@H]1C
    3.0 | -0.6
- Cc1ccc(S(=O)(=O)N(C)C[C@H]2Oc3ncc(-c4ccncc4)cc3C(=O)N([C@@H](C)CO)C[C@H]2C)cc1
    1.0 | 16.3
- CO[C@@H]1CN(C)C(=O)c2ccc(NC(=O)Nc3ccccc3F)cc2OC[C@@H](C)N(C)C[C@H]1C
    4.8 | -2.1
- C[C@@H]1CCCCO[C@H](CN(C)Cc2ccncc2)[C@H](C)CN([C@H](C)CO)C(=O)c2cc(NS(=O)(=O)c3ccccc3)ccc2O1
    -5.7 | 1.7
- CC(C)NC(=O)N(C)C[C@H]1OCCCC[C@@H](C)Oc2ccc(NS(=O)(=O)c3ccccc3)cc2C(=O)N([C@@H](C)CO)C[C@H]1C
    12.4 | 8.2
- C[C@H](CO)N1C[C@H](C)[C@@H](CN(C)C(=O)Nc2ccc3c(c2)OCO3)OCCCC[C@H](C)Oc2ccc(NS(=O)(=O)c3cn(C)cn3)cc2C1=O
    3.7 | 11.2
- C[C@@H](O)C#Cc1ccc([C@H]2[C@@H](CO)N3CCCCN(CC4CCOCC4)C[C@H]23)cc1
    4.1 | 21.6
- C[C@H]1CN([C@@H](C)CO)C(=O)c2cccc(NC(=O)c3nc4ccccc4s3)c2O[C@H]1CN(C)Cc1ccccc1
    -3.5 | -5.4
- CC(C)CC#Cc1ccc2c(c1)O[C@H](CN(C)C(=O)c1cnccn1)[C@@H](C)CN([C@@H](C)CO)S2(=O)=O
    -16.6 | -7.8
- C[C@@H]1CN([C@@H](C)CO)C(=O)c2cc(-c3cccc(F)c3)cnc2O[C@H]1CN(C)Cc1ccncc1
    -0.5 | -1.6
- COc1ccc2c3c([nH]c2c1)[C@@H](CO)N(Cc1ccncc1)CC31CN(Cc2ccc(-c3ccccn3)cc2)C1
    2.4 | 6.1
- COc1ccc(C#Cc2ccc3c(c2)O[C@@H](CN(C)C(=O)Nc2cccc(OC)c2)[C@H](C)CN([C@H](C)CO)S3(=O)=O)cc1
    -32.3 | -29.9
- C[C@@H]1CN([C@@H](C)CO)C(=O)c2cc(NC(=O)NC3CCCCC3)ccc2O[C@@H](C)CCCCO[C@@H]1CN(C)Cc1ccncc1
    -0.4 | -0.1
- Cc1noc(C)c1NC(=O)N(C)C[C@@H]1OCc2cn(nn2)CCCC(=O)N([C@@H](C)CO)C[C@H]1C
    10.7 | 21.7
- COc1ccccc1-c1ccc2c(c1)O[C@@H](CN(C)C(=O)Nc1ccccc1)[C@@H](C)CN([C@@H](C)CO)S2(=O)=O
    -14.6 | -18.3
- C[C@H](O)C#Cc1cnc2c(c1)C(=O)N([C@H](C)CO)C[C@@H](C)[C@H](CN(C)C(=O)c1ccncc1)O2
    20.2 | 27.4
- O=C(C[C@H]1CC[C@@H]2[C@H](COC[C@H](O)CN2C(=O)Nc2ccc(F)cc2)O1)NCCc1ccccc1
    -13.1 | -27.0
- Cc1cccc(S(=O)(=O)N2C[C@H](O)COC[C@H]3O[C@@H](CC(=O)Nc4ccccc4)CC[C@@H]32)c1
    -10.2 | -14.1
- CC(C)NC(=O)N[C@H]1CC[C@H](CCNC(=O)C2CC2)O[C@H]1CO
    1.4 | 6.0
- C[C@@H]1CN([C@H](C)CO)C(=O)c2cccc(NC(=O)C3CCOCC3)c2O[C@H]1CN(C)Cc1ccc(-c2ccccc2)cc1
    · | ?
- COCC#Cc1cnc2c(c1)C(=O)N([C@H](C)CO)C[C@@H](C)[C@H](CN(C)C)O2
    10.0 | 15.2
- COc1ccccc1C#Cc1ccc2c(c1)O[C@H](CN(C)Cc1cncnc1)[C@@H](C)CN([C@@H](C)CO)S2(=O)=O
    · | ?
- C[C@H]1CN([C@@H](C)CO)C(=O)c2cc(NC(=O)Cn3cnnn3)ccc2O[C@@H]1CN(C)Cc1ccc(C(F)(F)F)cc1
    -2.3 | 8.1
- COc1ccc(-c2cnc3c(c2)C(=O)N([C@@H](C)CO)C[C@@H](C)[C@H](CN(C)C(=O)CN(C)C)O3)cc1
    12.5 | 10.5
- Cc1cc(C(=O)Nc2cccc3c2O[C@H](CN(C)C(=O)Nc2ccc(F)cc2)[C@H](C)CN([C@@H](C)CO)C3=O)n(C)n1
    11.2 | 15.5
- C[C@@H]1CN([C@@H](C)CO)C(=O)c2cc(NC(=O)Nc3ccccc3)ccc2O[C@@H](C)CCCCO[C@H]1CN(C)Cc1ccc2c(c1)OCO2
    · | ?
- C[C@@H]1CN([C@@H](C)CO)C(=O)Cc2cc(NC(=O)Nc3ccc(F)cc3)ccc2O[C@H]1CN(C)C(=O)Nc1cccc2ccccc12
    9.8 | 4.3
- COc1ccccc1-c1cnc2c(c1)C(=O)N([C@@H](C)CO)C[C@H](C)[C@@H](CN(C)C)O2
    10.1 | 27.8
- CO[C@@H]1CN(C)C(=O)c2cc(NS(C)(=O)=O)ccc2OC[C@H](C)N(C(=O)C2CCCCC2)C[C@@H]1C
    4.4 | 8.5
- C[C@H](CO)N1C[C@H](C)[C@H](CN(C)C(=O)Nc2ccc3c(c2)OCO3)Oc2ccc(NC(=O)CCN3CCOCC3)cc2C1=O
    11.7 | 31.8
- O=C(Cc1cccnc1)N1CC2(C1)[C@H](c1ccccc1)[C@H](CO)N2C(=O)C1CCOCC1
    7.2 | 8.5

Part of the list above, with tabs:
structure	Vaccinia inh Venus	Vaccinia inh
COc1ccccc1C#Cc1ccc2c(c1)O[C@H](CN(C)Cc1cncnc1)[C@@H](C)CN([C@@H](C)CO)S2(=O)=O	·	?
C[C@H]1CN([C@@H](C)CO)C(=O)c2cc(NC(=O)Cn3cnnn3)ccc2O[C@@H]1CN(C)Cc1ccc(C(F)(F)F)cc1	-2.3	8.1
COc1ccc(-c2cnc3c(c2)C(=O)N([C@@H](C)CO)C[C@@H](C)[C@H](CN(C)C(=O)CN(C)C)O3)cc1	12.5	10.5

Continued.
Value order – Vaccinia inh Venus | Vaccinia inh
- C[C@@H]1CN([C@H](C)CO)C(=O)c2ccccc2-c2ccccc2CO[C@H]1CN(C)C(=O)c1cc(Cl)cc(Cl)c1
    -18.1 | -22.8
- COc1ccc(NC(=O)Nc2ccc3c(c2)[C@H]2C[C@H](CC(=O)NCc4ccccn4)O[C@H](CO)[C@H]2O3)cc1
    10.7 | 15.1
- O=C(Cc1ccccn1)N[C@@H]1CC[C@@H](CC(=O)N2CCCCC2)O[C@@H]1CO
    17.5 | 13.3
- COCC(=O)N(C)C[C@@H]1Oc2ncc(C#Cc3ccccc3OC)cc2C(=O)N([C@@H](C)CO)C[C@H]1C
    12.9 | 23.7
- COc1ccc(NC(=O)Nc2cccc3c2O[C@H](CN(C)S(=O)(=O)c2ccc(OC)cc2)[C@H](C)CN([C@@H](C)CO)C3=O)cc1
    -11.7 | 0.0
- COC(=O)C[C@@H]1C[C@@H]2c3cc(NC(=O)c4cccnc4)ccc3O[C@@H]2[C@H](CO)O1
    4.3 | 16.5
- O=C1CN(Cc2ccccc2)C[C@@H]2[C@H](c3ccc(Br)cc3)[C@@H](CO)N12
    16.2 | 24.4
- C[C@@H]1CN([C@@H](C)CO)C(=O)c2cccc(NS(=O)(=O)c3ccc(F)cc3)c2O[C@@H]1CN(C)C(=O)Nc1ccc(F)cc1
    -1.1 | -10.9
- CC(C)NC(=O)Nc1cccc2c1O[C@@H](CN(C)Cc1ccc(C(F)(F)F)cc1)[C@H](C)CN([C@H](C)CO)C2=O
    10.3 | 2.3
- CO[C@@H]1CN(C)C(=O)c2ccc(NC(=O)C3CCCC3)cc2OC[C@@H](C)N(C(=O)Nc2ccc(C(F)(F)F)cc2)C[C@H]1C
    -13.9 | -26.4
- CCCNC(=O)Nc1ccc2c(c1)OC[C@H](C)N(C(=O)C1CCCCC1)C[C@H](C)[C@H](OC)CN(C)C2=O
    5.3 | 6.7
- Cc1ccc(S(=O)(=O)Nc2cccc3c2O[C@@H](CN(C)Cc2ccc4c(c2)OCO4)[C@H](C)CN([C@H](C)CO)C3=O)cc1
    -3.6 | 3.7
- C[C@H]1CN([C@@H](C)CO)C(=O)c2cc(C#CCc3ccccc3)cnc2O[C@H]1CN(C)C(=O)C1CCOCC1
    6.3 | 7.0
- C[C@H]1CN([C@@H](C)CO)C(=O)c2cc(-c3cccc(C#N)c3)cnc2O[C@@H]1CN(C)Cc1ccccc1
    2.5 | 4.1
- COc1ccc(S(=O)(=O)N(C)C[C@@H]2Oc3ccc(NC(=O)Nc4ccc5c(c4)OCO5)cc3CC(=O)N([C@@H](C)CO)C[C@@H]2C)cc1
    -5.5 | -12.0
- C[C@@H]1CCCCO[C@H](CN(C)C(=O)Nc2ccccc2)[C@@H](C)CN([C@@H](C)CO)C(=O)c2cc(NS(=O)(=O)c3ccccc3)ccc2O1
    · | ?
- Cc1ccccc1S(=O)(=O)N1CCCCN2[C@H](CO)[C@H](c3ccc(-c4cncnc4)cc3)[C@@H]2C1
    3.3 | 16.0
- C[C@@H]1CN([C@H](C)CO)C(=O)Cc2cc(NC(=O)Cc3ccccc3)ccc2O[C@H]1CN(C)Cc1ccncc1
    2.1 | 7.7
- C[C@H](CO)N1C[C@H](C)[C@H](CN(C)CC2CCCCC2)Oc2c(NC(=O)Nc3ccc4c(c3)OCO4)cccc2C1=O
    -10.8 | -14.8
- C[C@@H]1CN([C@H](C)CO)C(=O)c2cc(NC(=O)CCCN(C)C)ccc2O[C@@H]1CN(C)C(=O)NC1CCCCC1
    8.1 | -1.0
- CNC[C@H]1Oc2ccc(NC(=O)Nc3ccc(C(F)(F)F)cc3)cc2CC(=O)N([C@@H](C)CO)C[C@H]1C
    -9.0 | -8.7
- CCC(=O)N[C@@H]1C=C[C@H](CC(=O)NCc2ccc(OC)cc2)O[C@@H]1CO
    0.0 | -2.6
- C[C@H](CO)N1C[C@H](C)[C@@H](CN(C)Cc2ccccc2)Oc2c(NS(=O)(=O)c3cccs3)cccc2C1=O
    9.7 | 9.6
- CCCNC(=O)[C@@H]1[C@@H](CO)[C@@H]2Cn3c(ccc(/C=C/c4ccccc4)c3=O)[C@H]1N2C(=O)c1cccnc1
    -4.4 | -7.4
- CC(C)NC(=O)N(C)C[C@@H]1Oc2ncc(-c3cccc(C#N)c3)cc2C(=O)N([C@H](C)CO)C[C@H]1C
    15.0 | 26.6
- C[C@H]1CN([C@@H](C)CO)C(=O)c2c(c3ccccc3n2C)-c2ccccc2CO[C@@H]1CN(C)C(=O)[C@H](Cc1ccccc1)N(C)C
    · | ?
- C[C@@H]1CN([C@@H](C)CO)C(=O)c2cc(-c3ccc(F)cc3)cnc2O[C@H]1CN(C)C(=O)NC1CCCC1
    4.6 | 3.1
- O=C1[C@@H]2[C@@H](CC(COc3ccccc3)=C3[C@@H](c4ccccc4)OB(O)C[C@@H]32)C(=O)N1Cc1ccccc1
    -20.3 | -27.0
- CO[C@@H]1CN(C)C(=O)c2cc(NC(=O)NC3CCCCC3)ccc2OC[C@@H](C)NC[C@H]1C
    -0.5 | 6.7
- CCNC(=O)C[C@@H]1CC[C@H]2[C@H](COc3ccc(NC(=O)Nc4c(C)noc4C)cc3C(=O)N2C)O1
    -9.6 | -10.6
- C[C@H]1CN([C@@H](C)CO)C(=O)Cc2cc(NC(=O)CCC(F)(F)F)ccc2O[C@@H]1CN(C)CC1CCCCC1
    -6.3 | -8.7
- COc1ccc2c3c(n(C)c2c1)[C@@H](CO)N(Cc1ccncc1)CC31CCN(C(=O)C2CCC2)CC1
    -1.1 | -5.8
- O=C(C[C@@H]1C=C[C@H](NC(=O)c2ccccc2)[C@H](CO)O1)NCc1ccc(Oc2ccccc2)cc1
    -19.9 | -28.9
- O=C(Nc1ccccc1)N1CCCCN2[C@H](CO)[C@@H](c3ccc(C#Cc4cccnc4)cc3)[C@@H]2C1
    -21.2 | -34.5

Bioassay records deposited in PubChem by Broad Institute.

The list is partial, so the mix of outcomes need not match the whole.
